# Vif A3G: inhibitors of Vif binding to APOBEC3G peptide, primary screen, biochemical, TR-FRET, GST-Vif 1-94, biotin-A3G peptide, dose response retest (AID 1117319). TR-FRET GST-Vif / biotin-A3G peptide binding; higher % means a stronger effect; test concentration not given here; strong numbers were not always called active. 260,000 compounds, 0.57% hits. inhibition, %, or IC50 in µM where a hit was titrated. Virion infectivity factor (Human immunodeficiency virus type 1 group M subtype B (isolate …;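 active = above the screen mean plus three standard deviations and confirmed in dose response; inconclusive = results disagree or hit not tested in dose response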;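 note: Vif residues 1-94 fused to GST binding biotinylated APOBEC3G peptide 110-148; 0% = full assay without inhibitor and 100% = GST in place of GST-Vif; retest series ran down from 100 µM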
# HNF4A DNA FP: change in binding of human HNF4A to DNA, primary screen, biochemical, fluorescence polarization, FITC-DNA. Hepatocyte nuclear factor 4-alpha (Homo sapiens), P41235. 1 h. activity change, % at 10 µM. 360,000 compounds, 0.3% hits; in the data active = activity change above about 30%, passing the limit was not always enough;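 note: controls were the assay level and a saturating level of protein; the project sought stronger binding though the title names inhibitors; some compounds called inactive have numbers as strong as hits; positive values seem to mean higher polarization but the record does not say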
# Target sequence (P41235 whole entry, looked up): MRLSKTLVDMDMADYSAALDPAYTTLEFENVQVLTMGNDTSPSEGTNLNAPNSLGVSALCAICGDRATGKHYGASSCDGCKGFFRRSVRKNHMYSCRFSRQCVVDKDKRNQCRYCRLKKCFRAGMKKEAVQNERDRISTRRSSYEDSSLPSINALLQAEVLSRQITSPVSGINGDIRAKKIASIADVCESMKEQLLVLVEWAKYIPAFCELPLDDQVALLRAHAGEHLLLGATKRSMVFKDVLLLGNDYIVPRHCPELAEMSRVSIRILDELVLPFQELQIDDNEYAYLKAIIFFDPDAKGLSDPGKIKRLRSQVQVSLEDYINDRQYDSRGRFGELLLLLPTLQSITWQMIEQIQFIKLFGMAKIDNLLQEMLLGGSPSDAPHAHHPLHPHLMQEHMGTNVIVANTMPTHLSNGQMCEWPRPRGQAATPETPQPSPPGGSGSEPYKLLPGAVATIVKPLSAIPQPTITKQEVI
# Ecoli growth: E. coli growth inhibition, primary screen, OD600. AID 1053175, 2014. OD600 absorbance (no concentration beside the values). 330,000 compounds, 0.21% hits. Escherichia coli growth, 23 h; active compounds read low;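 active = OD600 absorbance below the run mean of sample wells minus 3.6 SD, in any replicate, cut at about 0.56 in these data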;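 note: stock transfer was 300 nL into about 60 µL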
# RanGTP-Imp inh: inhibitors of RanGTP-importin-beta interaction, primary screen, biochemical, FRET, CFP-Ran, YFP-importin-beta, homogeneous | cell-free CFP-Ran/YFP-importin-beta FRET ratio | inhibition, % (test concentration not listed) | 300,000 compounds, 1.1% hits;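 active = most replicates above 15%; inconclusive = exactly half above 15%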;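 note: 0% = DMSO wells and 100% = Ran loaded with GDP instead of GTP; wells of about 40 µL received 100 nL stock; the first replicate is given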
# FGF22 binding: binders of human FGF22 protein, primary screen, FGF22 synaptogenesis inhibitor project, biophysical, thermal shift, single point; Fibroblast growth factor 22 (Homo sapiens), Q9HCT0; recombinant FGF22 thermal shift, SYPRO orange fluorescence; percent of sucrose octasulfate shift, DMSO zero; calls only at 9.99 µM; 340,000 compounds, 1.5% hits; AID 651658, 2012;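 active = melting point raised past a set limit in the mean and every replicate; inconclusive = no clear call; three in four hits are not shown here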
# Target sequence (Q9HCT0 whole entry, looked up): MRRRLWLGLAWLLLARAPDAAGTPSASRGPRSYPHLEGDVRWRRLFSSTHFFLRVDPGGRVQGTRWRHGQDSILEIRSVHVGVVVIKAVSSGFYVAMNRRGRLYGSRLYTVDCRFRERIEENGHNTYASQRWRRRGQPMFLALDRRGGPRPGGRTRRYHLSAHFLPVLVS
# MLL AF4-AF9 inh: inhibitors of AF4 peptide binding to AF9, primary screen, biochemical, AlphaScreen, biotin-AF4 peptide, FLAG-AF9, single point | Protein AF-9 (Homo sapiens), P42568 | AID 651704, 2012 | 350,000 compounds, 0.47% hits | inhibition, % at 10 µM;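 active = every replicate reaching a set inhibition limit, whatever the replicate mean, cut at about 25% in these data; inconclusive = mean inhibition reaches that limit but some replicates miss it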;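 note: 0% = plate neutral control median and 100% = total signal loss; the record names both 10 and 1 µM as test concentration; the first replicate is given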
# UCH37 inh: inhibitors of human UCH37 deubiquitinase, primary screen, biochemical, Ub-AMC cleavage, fluorescence; inhibition, % (concentration not given with the values); 330,000 compounds, 0.33% hits; purified proteasome/UCH37; Ubiquitin carboxyl-terminal hydrolase isozyme L5 (Homo sapiens), Q9Y5K5;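 active = mean of two replicates above 20%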;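 note: 0% = compound-free wells with enzyme and 100% = wells lacking proteasome; stock transfer was 100 nL into about 20 µL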
# Target sequence (Q9Y5K5 whole entry, looked up): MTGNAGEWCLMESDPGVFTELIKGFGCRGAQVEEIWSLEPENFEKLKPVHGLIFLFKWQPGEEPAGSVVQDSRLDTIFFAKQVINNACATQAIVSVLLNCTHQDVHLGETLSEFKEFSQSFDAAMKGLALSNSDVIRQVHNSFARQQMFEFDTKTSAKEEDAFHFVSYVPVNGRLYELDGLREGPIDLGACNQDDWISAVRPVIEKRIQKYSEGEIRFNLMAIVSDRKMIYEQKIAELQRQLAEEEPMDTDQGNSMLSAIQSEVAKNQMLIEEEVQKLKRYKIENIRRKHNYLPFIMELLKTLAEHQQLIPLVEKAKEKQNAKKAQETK
#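 Material: Human UCH37 enzyme supplied as purified proteasome complex | Schedule: 30 min compound-proteasome preincubation then 25 min substrate reaction, room temperature | Detection: AMC fluorescence from Ub-AMC cleavage, excitation 355 nm, emission 460 nm | Benchmarks: Wells without proteasome as full block, compound-free enzyme plus substrate as uninhibited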
# The depositor's hits bear a star; i = inactive; u = inconclusive; x = not tested or not shown; & = joins results of further samples. Some of the compounds tested; the hit share may differ from the screen's.
SMILES,Vif A3G,HNF4A DNA FP,Ecoli growth,RanGTP-Imp inh,FGF22 binding,MLL AF4-AF9 inh,UCH37 inh
CC(Oc1cc2oc(=O)c3c(c2cc1Cl)CCC3)C(=O)NC1CC(C)(C)NC(C)(C)C1 (stereo unspecified),x,-4.8,0.69,-2.7,i,-1.0,-9.3
Cc1cccc(NC(=O)C2CCN(S(=O)(=O)c3ccc4ccccc4c3)CC2)n1,-3%,2.2,0.65,3.4,x,1.0,0.4
CCC(=O)Nc1ccc(N2CCCCC2)cc1,5%,5.8,0.67,6.1,x,x,1.6
CCOC(=O)c1nnn(-c2nonc2N)c1-c1ccc(OCC)cc1,7%,1.4,0.74,-0.9,x,x,3.7
Cc1ccc2nc(-c3cccnc3)cc(C(=O)Nc3ccc(F)cc3C)c2c1,10%,2.1,0.68,1.2,i,-0.1,-1.4
Cc1ccc(NS(=O)(=O)c2cc(NC(=O)C(C)Oc3ccccc3)ccc2C)c(C)c1 (stereo unspecified),1%,0.4,0.7,2.8,x,x,1.6
COc1ccc(C2CC(=O)Nc3n[nH]c(-c4ccccc4)c32)cc1OC (stereo unspecified),-9%,4.8,x,-5.3,x,0.3,x
CCN(CC)CCOC(=O)c1ccc(NC(=O)c2cccc(C)c2[N+](=O)[O-])cc1,2%,-3.0,0.68,3.2,i,1.7,0.6
Cc1cccc(C)c1N=C1C(=O)Nc2ccccc21,1%,-0.6,0.65,1.1,i,2.9,2.2
COc1ccc(N2CCN(C(=O)CSc3ncnc4c3cnn4-c3ccccc3C)CC2)cc1,17%&-2%,2.7,0.76,3.3,x,x,-1.8
CC(C)NC(=O)c1ccccc1S(=O)c1ccccc1C#N (stereo unspecified),4%,-2.3,0.77,-1.1,x,x,5.1
CCN(C(=O)COC(=O)c1cccc(S(=O)(=O)N(CC)CC)c1)C1CCS(=O)(=O)C1 (stereo unspecified),6%,2.1,0.7,1.2,i,-5.3,1.6
CC1(C)CC2CC(C)(CN2S(=O)(=O)c2cccc(C(=O)OCC(N)=O)c2)C1 (stereo unspecified),-4%,1.9,0.71,0.3,x,0.4,3.2
COc1ccc(Cl)cc1Nc1nc(NCCO)nc(N2CCCCC2)n1,x,-2.4,0.7,2.9,i,-4.2,1.6
CS(=O)(=O)N(CC(=O)N1CCN(c2cccc(Cl)c2)CC1)c1ccccc1,-5%,-2.8,0.64,5.8,x,x,5.6
O=C(CSc1nnc(Cc2cc(=O)[nH]c(=O)[nH]2)n1-c1ccc(Cl)cc1)NC1CCCC1,2%,-7.5,0.74,x,i,1.0,6.8
Cc1occc1C(=O)NC(C)C12CC3CC(CC(C3)C1)C2 (stereo unspecified),8%,0.7,0.64,-0.1,i,-1.0,-0.9
CN(C)CCCNc1nc(N)c([N+](=O)[O-])c(NC2CCCCC2)n1,2%,-0.3,0.66,0.9,i,4.3,7.3
COC(=O)c1cccc(COC(=O)c2ccc(N(C)C)cc2)c1,-2%,-1.4,0.7,-2.4,x,x,3.5
COc1cccc(C2C3=C(N=c4s/c(=C\c5ccc(O)cc5)c(=O)n42)c2ccccc2CC3)c1OC (stereo unspecified),0%,8.3,x,-9.3,i,5.4,x
CC(=O)Nc1ccc(C(C)=NNC(=O)C2CCCC2)cc1,x,-1.0,x,x,i,-0.6,x
Cc1ccccc1NC(=O)c1ccc(CN2CCc3ccccc3C2)cc1,-2%,-2.8,0.76,u,x,x,-4.0
NC(=S)c1cc2cc(Br)ccc2oc1=O,0%,1.0,0.69,3.4,i,0.2,2.9
COc1cccc(OC)c1OCCCOc1ccc(C)cc1Br,12%,-1.3,0.69,3.7,x,x,6.0
Cc1cc(/C=C(\C#N)C(N)=O)c(C)n1-c1ccc(N2CCOCC2)c([N+](=O)[O-])c1,x,-3.0,0.72,1.3,x,x,6.9
O=C(CSc1ccc(Cl)cc1)NC1CCCc2ccccc21 (stereo unspecified),x,2.6,0.72,2.0,i,-3.5,3.8
CC(C)c1ccc(OCC(=O)NNC(=S)NC(=O)c2ccco2)c(Br)c1,-8%,-2.8,0.7,0.7,i,-0.3,3.1
Cc1cc(/C=N\NC(=O)COc2cccc3cccnc23)c(C)n1-c1ccccc1,x,-0.2,x,0.8,i,4.6,x
O=C(Nc1ccc(N2CCOCC2)cc1)c1ccc(-c2ccccc2[N+](=O)[O-])o1,5%,1.8,0.74,-0.6,i,3.8,5.1
O=S1(=O)C=C[C@H](COCc2ccccc2)N1,x,-2.3,x,x,i,-3.0,x

# The final 5 compounds of the section above are carried over, then new ones follow:
SMILES,Vif A3G,HNF4A DNA FP,Ecoli growth,RanGTP-Imp inh,FGF22 binding,MLL AF4-AF9 inh,UCH37 inh
O=C(CSc1ccc(Cl)cc1)NC1CCCc2ccccc21 (stereo unspecified),x,2.6,0.72,2.0,i,-3.5,3.8
CC(C)c1ccc(OCC(=O)NNC(=S)NC(=O)c2ccco2)c(Br)c1,-8%,-2.8,0.7,0.7,i,-0.3,3.1
Cc1cc(/C=N\NC(=O)COc2cccc3cccnc23)c(C)n1-c1ccccc1,x,-0.2,x,0.8,i,4.6,x
O=C(Nc1ccc(N2CCOCC2)cc1)c1ccc(-c2ccccc2[N+](=O)[O-])o1,5%,1.8,0.74,-0.6,i,3.8,5.1
O=S1(=O)C=C[C@H](COCc2ccccc2)N1,x,-2.3,x,x,i,-3.0,x
O=C1C(Cl)=C(NCCN2CCCCC2)C(=O)c2ccccc21,-2%,1.8,0.61,0.0,x,x,41*
O=C(Nc1cc2c(cc1Cl)OCCCO2)c1ccc(F)cc1,-3%,6.5,x,7.6,x,x,2.4
O=C(CC[C@H]1O[C@@H](n2ccc(=O)[nH]c2=O)[C@H](O)[C@@H]1O)N[C@@H](Cc1ccccc1)C(=O)NCC1CCCCC1,x,-0.1,x,x,i,-0.8,x
O=C(Oc1cccc([N+](=O)[O-])c1)c1ccc2c(=O)n3c(nc2c1)CCC3,-3%,-4.6,0.7,x,i,2.5,-0.6
O=C(c1cccc(F)c1)N1CCc2ccccc21,1%,2.6,0.7,5.2,i,6.8,6.1
CC1=C(C)CS(=O)N(c2ccc(S(N)(=O)=O)cc2)C1 (stereo unspecified),26%,-2.0,0.74,2.1,x,x,-3.1
COc1ccc(S(=O)(=O)N(CC(=O)NCc2ccncc2)Cc2ccccc2)cc1,x,-0.1,0.66,u,i,2.5,-0.4
O=S(=O)(c1ccc2c(c1)OCCO2)N1CCN(Cc2ccccc2)CC1,10%,-6.8,0.67,5.7,x,x,1.3
O=C(c1c(F)cccc1F)N1CCC(n2nnc3cc(C(F)(F)F)ccc32)CC1,x,-3.1,0.71,5.5,i,-3.4,3.1
COc1ccccc1C(=O)NNC1=NS(=O)(=O)c2ccccc21,x,0.2,0.65,2.0,i,-0.8,6.7
CCc1ccc(C(=O)Nc2ccc(S(=O)(=O)Nc3nc(C)cc(C)n3)cc2)o1,72%,3.9,0.72,u,x,x,3.1
O=C(Nc1nc2ccc(S(=O)(=O)N3CCCC3)cc2s1)c1cccs1,5%,2.3,0.73,-0.5,x,x,4.2
COc1ccc(NC(=O)Cn2c(C)cc(=O)c3cccc(OC)c32)cc1,-12%,-2.4,0.64,4.5,x,x,-0.5
O=C(NCc1cccc(Br)c1)C1CC(c2ccccc2C(F)(F)F)=NO1 (stereo unspecified),1%,2.5,0.68,u,x,x,0.1
COC(=O)[C@H]1C[C@H](OC(=O)NC2CC2)[C@@]2(O)CN(S(=O)(=O)c3ccc(C)cc3)CC2[C@H]1C(=O)OC (stereo partly specified),x,-4.4,x,x,i,-1.2,x
COc1ccc(-c2cc(=O)oc3cc(OCC(=O)Nc4ccccn4)ccc23)cc1,x,3.5,0.71,4.8,i,-2.4,-43
Cc1cccc(C(=O)OCC(=O)c2c(C)[nH]c3ccccc23)c1O,x,2.2,0.68,x,i,1.5,-1.1
COCCNC(=O)c1cc2c(c(-c3cccc(C#Cc4ccc(OC)c(OC)c4)c3)n1)[C@H](CCO)N(S(=O)C(C)(C)C)C2 (stereo partly specified),x,25,x,x,i,5.7,x
COc1ccc(CN(C#N)c2nc(SC)nc(N(C)C)n2)cc1,12%,0.8,0.7,x,x,x,1.6
CCC(=O)Nc1ccccc1C(=O)OCC(=O)c1ccc2ccccc2c1,2%,-3.0,0.73,5.3,x,x,-4.2
COc1ccc(NC(=O)Cn2ccc3c(OC)cccc3c2=O)cc1,0%,2.3,0.73,2.3,i,-14,-2.2
Cc1ccc(N2CCN(C(=O)c3cc(COc4c(C)cccc4C)on3)CC2)c(C)c1,x,1.3,0.73,u,i,-2.9,4.0
Cc1cc(C)c(C#N)c(Oc2ccccc2Br)n1,-4%,14,0.68,0.9,i,-4.8,-1.8
O=c1c2cc(Cl)ccc2[nH]c(=S)n1Cc1cccs1,-1%,1.4,0.71,-3.4,x,x,-4.3
Cc1cc(OCc2cc(C(=O)NCCN3CCCCC3CO)no2)cc(C)c1Cl (stereo unspecified),-2%,-2.5,0.62,-0.9,i,4.5,2.2
Cc1cc(C)c(C#N)c(Oc2ccccc2)n1,21%,1.7,0.75,3.3,x,x,5.4
CCC(C)NC(=O)CNC(=O)c1nn(-c2ccc(OC)cc2)c(=O)c2ccccc12 (stereo unspecified),-9%,-3.5,0.69,-1.8,i,-3.4,3.3
CCN(CC)S(=O)(=O)c1ccc2oc(Nc3ccccc3)nc2c1,x,-2.8,0.69,-5.2,i,4.8,2.0
CC(C)(C)S(=O)N1Cc2cc(=O)n(Cc3ccccc3)cc2[C@H]1CCO (stereo partly specified),-6%,0.3,0.7,x,i,-4.3,-0.6
O=C(CCN1CCOCC1)NNC(=O)c1ccc([N+](=O)[O-])cc1[N+](=O)[O-],-5%,2.8,0.71,x,i,-1.1,1.7
CC(c1nc2ccccc2c(=O)[nH]1)N1CCN(S(=O)(=O)c2ccc(F)c(Cl)c2)CC1 (stereo unspecified),0%,-0.9,x,x,i,-1.2,x
Cc1ccc2cc(CCNS(=O)(=O)c3ccc(Cl)cc3)c(=O)[nH]c2c1C,x,-0.4,0.69,-0.8,i,-0.9,-5.4
COc1ccccc1C(O)(C(=O)NN(C)c1ccccc1)c1ccccc1OC,x,5.8,0.64,0.0,i,-4.1,0.5
CC(C)N(C(=O)CSc1ccc(S(=O)(=O)N2CCCCC2)cn1)C(C)C,x,-1.5,0.64,x,i,-2.7,0.8
COc1cc2c(cc1OC)N1C(=O)CC(OCC(=O)O)C3C4CC5(CCN5C(=O)C4=O)C2C31 (stereo unspecified),5%,4.0,0.7,u,i,-3.5,2.4
COc1cc(N2Cc3ccccc3C2)ccc1C=O,x,0.9,0.71,1.5,i,-11,3.6
CC(NC(=O)CNC(=O)C1CCCCC1)c1ccc(S(N)(=O)=O)cc1 (stereo unspecified),x,-0.9,0.67,-0.9,i,-2.0,3.7
CC(C)(C)OC(=O)N1CCC[C@H]1C(=O)O,x,-2.6,x,6.6,i,3.0,2.1
COCCNc1oc(-c2ccc(C)cc2)nc1C#N,25%,0.5,0.72,11,x,x,-37

# Compound activity from PubChem.
